TRPV1 PAM: HTS Assay for Compounds that Act as Potentiators of the Vanilloid Receptor 1 | potentiation, % at 8.33 µM | TRPV1-expressing cells, Fluo-8 calcium influx, capsaicin EC20 potentiation; host cell line not named in the record; control for the full effect not named in the record | Transient receptor potential cation channel subfamily V member 1 (Homo sapiens), Q8NER1 | 320,000 tested, 0.02% active | AID 540277, 2011; active means potentiation above 80%; inconclusive means 30% to 80%; inactive means below 30%; note: 0% is about no effect
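Cells expressing TRPV1 were dye-loaded with Fluo-8 and read kinetically: 10 s baseline, 3 min after compound (agonist portion), then 2 min after EC20 capsaicin (allosteric enhancer portion). Calcium-bound dye fluorescence at 480/520 nm.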
ClpP mod: qHTS Assay for Activators of ClpP; 340,000 tested, 1.9% active; Potency, µM (titrated, usually from 57.5 µM), inactives show at the highest dose activity change, negative = active; purified B. subtilis ClpP, FRET peptide cleavage, 20 min; AID 651965, 2013; ATP-dependent Clp protease proteolytic subunit (Bacillus subtilis (strain 168)), P80244; active = well fitted falling curve with a large enough effect; inconclusive = small, poorly fitted or top-dose-only effect; inactive = no such curve, though single readings can be large or run the other way; note: potency is the fitted concentration of half-maximal effect; the source files actives as falling curves though it sought activators and does not explain the sign; nearly all actives have a fitted effect of over 65% in size; many hits overshoot -100%
Target sequence (P80244 whole entry, looked up): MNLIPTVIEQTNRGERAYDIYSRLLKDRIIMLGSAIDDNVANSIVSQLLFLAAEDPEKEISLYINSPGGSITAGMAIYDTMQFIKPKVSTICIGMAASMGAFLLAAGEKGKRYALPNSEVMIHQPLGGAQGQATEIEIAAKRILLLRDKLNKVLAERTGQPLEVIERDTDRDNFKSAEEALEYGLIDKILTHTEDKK
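Purified B. subtilis ClpP, 10 microg/mL final in Tris/HCl pH8 with KCl, BSA, glycerol and Tween-20, cleaved an Abz/nitrotyrosine-quenched decapeptide. Fluorescence (ex 320, em 430) was read at 0 and 20 min at room temperature. Delta was normalized to 5.8 microM ADEP and DMSO/no-enzyme controls.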
TRPML1 agonist: qHTS for Agonists of the Human Mucolipin Transient Receptor Potential 1 (TRPML1) | AID 624414, 2012 | activation, % (concentration not given with the values) | Mucolipin-1 (Homo sapiens), Q9GZU1 | TRPML1-expressing cells, Ca2+ dye fluorescence, FDSS; host cell line not named in the record; reference of the full effect not given here | 410,000 tested, 0.12% active; in the data active = activation above about 50%; inconclusive = about 30% to 50%; inactive = below about 30%; note: 0% is about no effect; the text of the record puts the active cut at 80%
Target sequence (Q9GZU1 whole entry, looked up): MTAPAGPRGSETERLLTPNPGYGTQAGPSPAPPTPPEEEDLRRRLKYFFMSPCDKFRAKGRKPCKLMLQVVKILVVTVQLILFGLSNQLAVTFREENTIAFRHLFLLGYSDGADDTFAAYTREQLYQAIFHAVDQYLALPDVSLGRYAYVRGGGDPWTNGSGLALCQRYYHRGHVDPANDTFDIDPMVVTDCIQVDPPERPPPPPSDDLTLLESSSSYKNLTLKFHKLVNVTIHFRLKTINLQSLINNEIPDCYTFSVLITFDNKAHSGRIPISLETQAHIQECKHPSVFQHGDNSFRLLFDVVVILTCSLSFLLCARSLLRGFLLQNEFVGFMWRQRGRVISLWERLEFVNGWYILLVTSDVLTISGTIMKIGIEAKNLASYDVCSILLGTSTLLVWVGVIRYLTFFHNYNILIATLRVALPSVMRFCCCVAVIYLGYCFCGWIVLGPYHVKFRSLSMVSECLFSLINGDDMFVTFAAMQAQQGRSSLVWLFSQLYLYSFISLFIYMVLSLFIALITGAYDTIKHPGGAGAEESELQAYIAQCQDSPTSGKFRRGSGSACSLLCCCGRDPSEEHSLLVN
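Tetracycline-induced TRPML1-DL cells are seeded and incubated overnight before loading with a no-wash Ca2+ dye and quencher. Agonist activity is taken from the 110 s fluorescence read following compound pin-transfer on an FDSS, before EC80 54-4 challenge.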
TRPML1 blocker: qHTS for Inhibitors of the Human Mucolipin Transient Receptor Potential 1 (TRPML1); activity change, negative = inhibition, % (test concentration not listed); Mucolipin-1 (Homo sapiens), Q9GZU1; 390,000 tested, 0.02% active; TRPML1-inducible cells, Ca2+ dye fluorescence, FDSS; hits give low values; inhibition of EC80 agonist-evoked calcium signal; in the data active means activity change below about -50%; inconclusive means about -30% to -50%; inactive means above about -30%;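 note: stimulus is agonist 54-4 at its EC80 concentration; % is set by controls: 0 for no effect and ±100 for the full control effect; compound concentration not given in the record; the text of the record puts the active cut at -80%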
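TRPML1-DL cells, Tet-induced overnight (~16 h, 37 °C) at 1,500 cells/well, were loaded with Ca8 no-wash dye plus quencher for 45-90 min at room temperature. Compounds were pinned during FDSS kinetic reading; agonist 54-4 at EC80 (4 uM final) then added.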
PINK1 expr mod: A Quantitative High throughput Screen to Identify Chemical Modulators of PINK1 Expression; PINK1 immunofluorescence, high-content cytometry, 24 h; Potency, µM (highest dose often 76.6 µM), for inactives: at the top dose activation (PINK1 increase), actives largely listed as activators; 410,000 tested, 0.2% active; AID 624263, 2012; active = well fitted activation curve with a large enough effect; inconclusive = small, poorly fitted or top-dose-only effect; inactive = flat fitted curve, though single readings scatter; cell line not stated here;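 note: potency is the fitted concentration of half-maximal effect; % of control where 0% means no effect; nearly all actives have a fitted effect of over 65% in size; a mitochondrial uncoupler was the plate control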
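Measures PINK1 amount and localization on or inside mitochondria by immunofluorescence. Stable cells get compounds at 5 concentrations for 24 hours before fixation and staining; CCCP controls included.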
Sfp PPTase inh: qHTS Assay for Inhibitors of Bacillus subtilis Sfp phosphopantetheinyl transferase (PPTase) | Biochemical Sfp PPTase activity, qHTS | Potency, µM, for inactives: max response, negative = inhibition, actives largely listed as inhibitors | 310,000 tested, 3.5% active | AID 1490, 2009; active = well fitted inhibition curve with a large enough effect; inconclusive = small, poorly fitted or top-dose-only effect, or another doubt; inactive = no such curve, though single readings can be large or run the other way;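 note: the enzyme is Sfp with the accession as filed and its product quenches rhodamine fluorescence; potency is the fitted concentration of half-maximal effect; 0% = enzyme reaction without inhibitor and -100% = no enzyme wells; top concentration of the series not given in the record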
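Compounds were incubated with enzyme (final 15 nM) for 15 min at room temperature before substrate addition started the reaction. Fluorescence at 525 nm excitation, 598 nm emission was recorded immediately and after 30 minutes.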
Menin-MLL FL inh: qHTS Assay for Inhibitors Targeting the Menin-MLL Interaction in MLL Related Leukemias: Competition With Fluorescein Labeled MLL-derived Peptide. FP activity change, % at 61.4 µM. Fluorescence polarization, fluorescein-MLL peptide displacement from menin. 290,000 tested, under 10 active. AID 1766, 2009; inconclusive = falling polarisation curve, or a change in total fluorescence; inactive = total fluorescence flat and polarisation flat or rising; no compound was filed as active; the % refers to the polarisation; negative = inhibition;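 note: % of control where 0% means no effect; inhibitors lower the polarisation; unlabelled MLL peptide was the positive control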
The depositor's hits bear a star; ? = inconclusive; . = not tested or not shown; [ ] = another dose, or the depositor's remark.

SMILES	TRPV1 PAM	ClpP mod	TRPML1 agonist	TRPML1 blocker	PINK1 expr mod	Sfp PPTase inh	Menin-MLL FL inh
Cc1ccnc(NS(=O)(=O)c2ccc(NC(=O)c3ccc(N4C(=O)CCC4=O)cc3)cc2)n1	0	-2.4%	1.7	1	1.1%	5%	12
O=C(/C=C\Nc1ccc(Cl)cn1)c1ccc(Br)cc1	0	-0.1%	-0.2	-3	?	26%	8.8
CCN1CCN(C(=O)C(C)Sc2nc3nc(C)cc(C)n3n2)CC1 (stereo not drawn)	.	.	-0.5	-1	1.6%	.	.
CCOc1ccc(-n2c(C)nc3cc(C(=O)NCC4CCCO4)ccc32)cc1 (stereo not drawn)	-6	.	0.1	-1	-1.1%	10%	-11
COc1cccc(C(C(=O)NC(C)(C)C)N(CCc2ccccc2)C(=O)CCC(=O)Nc2cc(C)on2)c1OC (stereo not drawn)	-6	-3.7%	0.8	-7	2.7%	-1%	2.6
COCCOC(=O)c1c(C)n(S(=O)(=O)c2ccc(C)cc2)c2ccc(NS(=O)(=O)c3ccc(C)cc3)cc12	.	-0.2%	-0.8	-5	1.3%	.	.
CC1CCC(NC(=O)c2cc3c(=O)n(C)c4ccccc4c3n2C)CC1 (stereo not drawn)	23	-28%	0.3	?	8.2%	23%	2.9
COCCCNC(=O)CC(NS(=O)(=O)c1ccc(C)cc1)c1ccco1 (stereo not drawn)	5	3.2µM*	-0.3	5	2.4%	23%	0.4
CCOC(=O)C1=C(COC(=O)COc2cc(C)ccc2C)NC(=O)NC1C (stereo not drawn)	0	1.6%	2.3	1	-2.8%	.	.
CCOc1ccc(N2CC(NC(=O)c3ccc(S(=O)(=O)N4CCCCC4)cc3)CC2=O)cc1 (stereo not drawn)	.	0.8%	-0.1	-21	3.7%	.	.
O=C(NCCc1ccccc1)c1nccc2ccccc12	7	-1.4%	-0.1	-3	0.9%	.	.
N#Cc1nc(-c2ccc(COc3ccccc3)o2)oc1N1CCN(c2ccccc2)CC1	.	16µM*	0.3	38	2.3%	.	.
O=C1CC(c2ccccc2)CC(=O)C1CS(=O)(=O)c1ccccc1 (stereo not drawn)	2	.	0.6	4	1.0%	-51%	0.9
COc1ccc(Nc2ncnc3nc[nH]c23)cc1OC	-10	-1.3%	-0.7	34	1.2%	5%	1.9
Fc1ccc(Nc2ncncc2-c2ccccc2C(F)(F)F)cc1	.	.	.	.	-0.9%	79µM*	-1.4
COc1cc(OC)nc(Oc2cc(/C=N/O)ccc2OC)n1	-3	0.5%	-1.2	-14	7.9%	3%	3.3
Cc1[nH]c2ccccc2c1C(=O)C(=O)NCCc1c[nH]c2ccccc12	2	-1.4%	0.3	-26	1.0%	23%	.
CCCCN(C)c1c(C)nc2ccc(C(=O)NCc3ccc(OC)cc3)cn12	.	-4.6%	-1.0	.	-0.3%	.	.
O=C(CCc1ccccc1)Nc1nn[nH]n1	2	-1.6%	0.3	-5	2.5%	-5%	6.0
COc1cc(CC(=O)N2CCC(n3nccc3NC(=O)C3CC3)CC2)cc(OC)c1OC	7	0.0%	0.7	-1	1.7%	15%	1.4
Cc1ccc(S(=O)(=O)N2[C@@H](c3ccc(Cl)cc3)C(C(=O)O)=C[C@H]2CC2CCCC2)cc1	.	-1.4%	-0.1	-10	-0.4%	.	.
COCCNC(=O)c1cc2cc(Br)cc(Br)c2oc1=O	-1	.	-0.4	-7	1.0%	-6%	12
O=S(=O)(c1ccc2oc3ccccc3c2c1)N1CCOCC1	16	-9.6%	-1.2	3	-0.4%	-8%	2.0
COCCn1c(C)cc(O)c(C(c2ccccc2F)N2CCN(c3ccccc3)CC2)c1=O (stereo not drawn)	.	0.3%	1.5	53	-0.2%	.	.
O=C(C/C=N\OCc1ccc([N+](=O)[O-])cc1)Nc1ccc(F)cc1F	1	.	6.7	10	-0.3%	20%	4.9
COC(=O)c1[nH]c2cccc(OC)c2c1NC(=O)CCN1CCSCC1	14	.	3.1	41	-0.5%	28%	2.2
CCNc1nc(SC(C)C(=O)Nc2ccccc2)nc(N2CCOCC2)n1 (stereo not drawn)	1	-2.7%	1.9	4	-0.1%	-6%	2.9
Cc1ccc(/C=N/NC(=O)COc2ccccc2-c2ccccc2)cc1	-2	0.4%	4.3	24	-0.4%	?	0.2
O=S(=O)(c1ccc(-c2ccccn2)s1)N1CCC2(CC1)OCCO2	-3	.	1.7	16	-1.1%	-1%	3.1
Nc1ccc2c(C(F)(F)F)cc(C(F)(F)F)nc2n1	6	.	-0.3	-19	2.5%	-14%	-0.1
COc1ccccc1Nc1nc(NCCCN(C)C)nc(N)c1[N+](=O)[O-]	-7	.	0.4	-11	-0.1%	-27%	-1.2
CCOC(=O)Cc1csc(SCC(=O)Nc2oc(C)c3c(C)n[nH]c(=O)c23)n1	-15	-1.6%	2.8	6	0.5%	.	.
COc1cccc(CNc2ccc(S(N)(=O)=O)cc2)c1OC	5	0.6%	1.5	-5	-1.3%[38.3 µM]	12%	-1.7
O=C(c1ccccc1)c1ccc(N2CCOCC2)c(NC(=O)c2ccco2)c1	-12	0.0%	0.6	3	-2.8%	-15%	-2.5
O=C(NCc1ccccc1)c1ccc(CNc2c(N3CCCC3)c(=O)c2=O)cc1	6	1.1%	0.4	5	0.2%	7%	-0.8
CC1CCN(c2ccc(C=O)o2)CC1	-4	0.7%	-0.1	-14	-0.6%	4%	-2.0
COc1ccc(C2NCCc3c2[nH]c2ccccc32)cc1CN1CCc2cc(OC)c(OC)cc2C1C (stereo not drawn)	-2	-2.5%	.	.	1.2%	-17%	-0.3
CC(C)(C)c1nc(SCC(=O)Nc2ccc3c(c2)OCCO3)c2ccccc2n1	4	-1.0%	2.7	-9	3.5%[38.3 µM]	21%	12
Cc1ccc2oc(=O)c3cc(C(=O)NCCCN4CCN(C)CC4)sc3c2c1	12	4.0%	-0.3	-1	-0.4%	10%	1.7
CN1OC(COC(=O)c2ccc(Cl)cc2)CC1c1ccccc1 (stereo not drawn)	-5	1.3%	1.8	-5	-2.0%	7%	2.3
CCCCc1ccc(S(N)(=O)=O)cc1	22	1.3%	1.4	-17	-0.6%	26%	-0.6
NC(=O)c1ccccc1NC(=O)c1ccccc1Cl	5	-0.1%	-0.5	-11	1.9%	18%	3.7
CS(=O)(=O)N(CC(=O)Nc1ccc(S(=O)(=O)N2CCCC2)cc1)c1ccccc1	10	.	0.0	16	0.9%	15%	3.2
CCOC(=O)COc1ccc(C(=O)Nc2cccc(Cl)c2C)cc1	-8	.	1.5	6	-1.9%	10%	1.0
O=C(Nc1ccc(S(=O)(=O)N2CCOCC2)cc1)C1COc2ccccc2O1 (stereo not drawn)	0	1.3%	-1.0	-3	-0.6%	8%	1.0
O=C(Cn1cnc([N+](=O)[O-])n1)c1ccc(O)c(O)c1	-2	1.5%	0.1	-27	1.1%	?	-0.1
Cc1ccc(OCCCCN2CCCCC2)c(C)c1	0	-1.1%	0.3	-2	-0.5%	1%	5.5
CCCN(C(=O)c1cc(CC)c(C)s1)c1c(N)n(Cc2ccccc2)c(=O)[nH]c1=O	6	0.5%	0.0	15	13%	.	.
C/C(=N\NC(=O)c1ccc(Cl)c(Cl)c1)c1ccccn1	-9	.	1.6	-18	-0.1%	18%	-0.4
CC(C)C[C@H]1CN([C@@H](Cc2ccccc2)CN2CCC[C@@H]2CN2C(=O)C(=O)NC[C@@H]2Cc2ccc(O)cc2)C(=O)C(=O)N1CC1CCCCCC1	.	0.1%	-0.7	-6	-0.6%	.	.
CCc1ccc(OCC(=O)NNC(=O)CSc2nnc(-c3ccc(C)cc3)n2C)cc1	4	1.6%	1.3	-20	1.0%	14%	6.4
CCOc1ccc2nc(N3CCCC(C(=O)Nc4cccc(Cl)c4C)C3)sc2c1 (stereo not drawn)	.	2.0%	0.5	-16	1.8%	.	.
N#Cc1c(NC(=O)c2ccc(-c3ccccc3[N+](=O)[O-])o2)sc2c1CCCC2	9	-4.0%	4.0	35	-1.7%	-11%	-1.8
Cc1ccc(S(=O)(=O)N2C[C@@H]3[C@H]4CC[C@H](C4)[C@@H]3[C@@H](C)[C@@H]2C2CCCCC2=O)cc1 (stereo partly drawn)	.	-3.1%	92*	-10	1.6%	.	.
CC1=C(C(=O)N(C)C)CC(CC(=O)NC2CCCC2)C(=O)N1CCCN1CCCC1=O (stereo not drawn)	.	-0.4%	-0.5	-5	2.2%	.	.
O=C(NCc1ccccn1)C(=O)N/N=C/c1ccc2c(c1)OCO2	-11	0.6%	0.8	-24	0.3%	11%	-0.6
CC(=O)N1CCc2cc(NC(=O)C3(C)CCN3Cc3ccccc3Cl)ccc21 (stereo not drawn)	.	1.0%	-0.7	.	-0.6%	.	.
CCOc1ccc(CN(C)C(C)C(=O)NCc2ccccc2)cc1 (stereo not drawn)	-13	2.3%	.	.	2.0%	5%	-1.2
O=C(C(=O)N1CCCC1)c1c[nH]c2ccccc12	-7	.	0.8	3	1.4%	18%	6.6

Entries of single compounds as entered above. Order of screens: TRPV1 PAM, ClpP mod, TRPML1 agonist, TRPML1 blocker, PINK1 expr mod, Sfp PPTase inh, Menin-MLL FL inh
CC(=O)N1CCc2cc(NC(=O)C3(C)CCN3Cc3ccccc3Cl)ccc21 (stereo not drawn) as listed: ., 1.0%, -0.7, ., -0.6%, ., .
CCOc1ccc2nc(N3CCCC(C(=O)Nc4cccc(Cl)c4C)C3)sc2c1 (stereo not drawn) as listed: ., 2.0%, 0.5, -16, 1.8%, ., .
CCc1ccc(OCC(=O)NNC(=O)CSc2nnc(-c3ccc(C)cc3)n2C)cc1 as listed: 4, 1.6%, 1.3, -20, 1.0%, 14%, 6.4
